Vaccinia Venus: inhibitors of vaccinia virus (Venus reporter). Vaccinia virus Venus reporter expression, fluorescence. 0.46% of 330,000 active. AID 720580. Potency, µM (series often up to 36.5 µM), for inactives: at the top dose activity change, negative = inhibition, usual class: inhibitors; active means well fitted inhibition curve with a large enough effect; inconclusive means small, poorly fitted or top-dose-only effect; inactive means no such curve, though single readings can be large or run the other way; tested in A549 cells; also: nearly all actives have a fitted effect of over 30% in size; inactives centre near -10
Vaccinia mCherry: inhibitors of vaccinia virus infection (mCherry reporter signal); Vaccinia virus mCherry reporter infection, fluorescence; about a quarter of the inactives have no number; Potency, µM (titrated, usually from 36.5 µM), for inactives: at the highest dose activity change, negative = inhibition, most hits filed as inhibitors; 0.63% of 310,000 active; active = well fitted inhibition curve with a large enough effect; inconclusive = small, poorly fitted or top-dose-only effect; inactive = no such curve, though single readings can be large or run the other way; tested in A549 cells; also: nearly all actives have a fitted effect of over 35% in size; inactives centre near -10
* = called active by the depositor; i = inactive; ? = inconclusive; nt = no result given; & = joins results of further samples; [ ] = another dose, or the depositor's remark. % is scaled to controls: 0 for no effect and ±100 for the full control effect; potency is read from the fitted curve at half-maximal effect. The order is random; any-hit rate near 0.82%.

Start of the listing, in advance (two entries):
Under each structure – Vaccinia Venus | Vaccinia mCherry
- CCCc1nnc(SCC(=O)N2C(C)CCCC2C)n1CC (centres undefined)
  4% | i
- Nc1ccccc1Sc1ccc(C(F)(F)F)cc1[N+](=O)[O-]
  -3%[7.34 µM] | -20%[7.34 µM]

All compounds of this part, from the first entry:
Under each structure – Vaccinia Venus | Vaccinia mCherry
- CCCc1nnc(SCC(=O)N2C(C)CCCC2C)n1CC (centres undefined)
  4% | i
- Nc1ccccc1Sc1ccc(C(F)(F)F)cc1[N+](=O)[O-]
  -3%[7.34 µM] | -20%[7.34 µM]
- COc1cc(C2Nc3ccccc3C(=O)N2c2ccccc2OC)ccc1O (centres undefined)
  -10% | i
- COc1ccc(NC(C)=O)cc1NC(=O)c1ccc(Cl)cc1
  -8% | -30%
- O=C(NCCCn1ccnc1)c1ccc(Cl)cc1
  -13% | i
- Cc1cc(C)c(NC(=S)NC(CO)(CO)CO)c(C)c1
  -7% | -7%
- CC(C)(C)n1nnnc1C(c1cccnc1)N1CCN(C(=O)c2ccco2)CC1 (centres undefined)
  -2% | i
- CC(=O)c1ccc(N2CCN(S(=O)(=O)c3cc4[nH]c(=O)c(=O)[nH]c4cc3C)CC2)cc1
  2%&1% | -2%&4%
- CCOc1ccc2nc(NC(=O)C3CCCN(S(=O)(=O)c4c(C)noc4C)C3)sc2c1 (centres undefined)
  ? | ?
- Nc1ccc(N2CCN(c3cccc(Cl)c3)CC2)cc1
  -4% | i
- COc1ccc(CCNc2oc(/C=C/c3ccc(OC)c(OC)c3)nc2C#N)cc1
  -6% | -10%
- Cc1ccccc1Cn1nnc2c(=O)[nH]c(C3CCN(C(=O)c4ccccc4Cl)CC3)nc21
  0% | 13%
- CC(OC(=O)c1ccc(-c2ccc([N+](=O)[O-])cc2)o1)C(=O)NC(N)=O (centres undefined)
  -17% | i
- O=C(Cn1nnc(-c2ccccc2F)n1)Nc1cccc2ncccc12
  -12% | -17%
- Fc1cc(Br)cc(F)c1NC(=S)N1CCOCC1
  -11% | -19%
- CC(Sc1nncs1)C(=O)NC1CCCCC1C (centres undefined)
  ? | -4%
- Cc1ccc(C2=NOC3(CC(=O)N(c4ccc(C)cc4)C3=O)C2)cc1 (centres undefined)
  -8% | i
- NC(=O)c1cccc(-c2ccnc3c2CC(C(=O)NCc2ccco2)O3)c1 (centres undefined)
  5% | 12%
- CSc1ccccc1NC(=O)CN(C)C(=O)COc1ncnc2ccccc12
  -4% | -13%
- O=[N+]([O-])c1cccnc1Oc1ccccc1F
  -6%[7.34 µM] | -6%[7.34 µM]

Under each structure – Vaccinia Venus | Vaccinia mCherry
- CCOC(=O)C(C)N1C(=O)S/C(=C/c2cc(C)n(-c3ccccn3)c2C)C1=O (centres undefined)
  -8% | -15%
- COc1ccc(CCN2C(=O)CCC2(C)C(=O)NCc2cccnc2)cc1OC (centres undefined)
  -10% | 0%
- COC(=O)c1ccccc1NC(=O)CNC(=O)c1ccc(OC)c(OC)c1
  -12% | -13%
- COCCOC(=O)/C(=C/c1ccc(OC(=O)c2ccccc2)cc1)C(C)=O
  -10% | -6%
- CC(C)c1ccc(C(=O)CC2(O)C(=O)N(CN3CCOCC3)c3ccccc32)cc1 (centres undefined)
  -2% | -7%
- O=C(Nc1ccncc1)c1cc(C2CCCCN2C(=O)CCc2ccccc2)on1 (centres undefined)
  -22% | ?
- CN(C)CCCN(CCCNC(=O)/C=N/O)Cc1ccccc1
  -13% | -14%
- COc1cc2c(c(OC)c1OC)C(c1ccc3c(c1)OCO3)CC(=O)O2 (centres undefined)
  -5% | i
- CCn1cc(C(=O)NCCc2ccccc2)c(=O)c2cc(S(=O)(=O)N(C)C3CCCCC3)ccc21
  -9% | -9%
- COc1ccc2c(c1)c(CC(=O)O)c(C)n2Cc1ccc(Cl)cc1
  -12% | -9%
- C=CC[C@@H](CC(=O)N[C@H](CO)Cc1ccccc1)C(=O)NCCOC(=O)[C@@H](CC=C)CC(=O)OC(C)(C)C
  -16% | -4%
- Cc1ccc(C(=O)N/C(=C\c2ccccc2)C(=O)NCC2CCCO2)cc1 (centres undefined)
  10% | -4%
- CC1(C(=O)NS(=O)(=O)c2cccc(C#N)c2)CCN1C(=O)C1(c2ccc(Cl)cc2)CCC1 (centres undefined)
  -6% | 33%[activator]
- COc1ccc(OC)c(C(=O)CSc2nc3cccnc3n2C)c1
  1% | -12%
- O=C(/C=C1\OCc2ccccc21)c1ccccc1
  -6% | ?
- CCC(C)CCN1C(Nc2ccccc2)=NC[C@@H]1C (some centres undefined)
  -8% | -10%
- O=C(CSc1ncn[nH]1)NNC(=O)c1ccccc1
  4% | -13%
- COc1ccc(C(=O)OCc2nnc(-c3ccccc3)o2)cc1S(=O)(=O)N1CCOCC1
  0% | -2%
- O=C(OCC(=O)N1CCCc2ccccc21)c1cc(Br)ccc1O
  -9% | -12%
- Cc1ccc(C(=O)Nc2ccc(C(=O)O)cc2)cc1S(=O)(=O)Nc1ccccc1
  -8% | -11%

Under each structure – Vaccinia Venus | Vaccinia mCherry
- CC(Cc1ccccc1)NC(=O)/C=C/c1ccc(Cl)cc1 (centres undefined)
  -8% | -19%
- CCn1c(N)nc2c1c(=O)n(C)c(=O)n2C
  2% | 11%
- COc1cccc(SCc2noc(C(=O)NCCN(C)C)c2C(=O)NCCN(C)C)c1
  -2% | -9%
- COc1cccc(-n2nc(C(=O)Nc3ccc4c(c3)OCO4)c3ccccc3c2=O)c1
  -8% | nt
- Cc1csc2cc(-c3cccc([N+](=O)[O-])c3)c(-c3cccc([N+](=O)[O-])c3)c[n+]12
  -5% | -5%
- Cc1ccc(Cl)cc1NC(=O)CN1C(=O)c2ccccc2Sc2ncccc21
  -1% | -12%
- CCOC(=O)N1CCN(c2ccc([N+](=O)[O-])cc2)CC1
  -17% | -15%
- COc1ccc(Cl)cc1C(=O)N1CCC2(CC1)CC(=O)c1ccccc1O2
  -18% | -2%
- CC1(C)CC(=O)C=C(NCCN2CCN(C(=O)Nc3ccc(Cl)cc3)CC2)C1
  5% | nt
- CCOc1cc(C2C(C(N)=O)=C(C)Nc3ncnn32)cc(Br)c1O (centres undefined)
  -5% | 0%
- CCOc1ccc(C2CC(=O)n3nc(-c4ccc(C)cc4)nc3S2)cc1 (centres undefined)
  -8% | -5%
- O=C(Cn1cnc2c(OCc3ccccc3)ncnc21)NCCCn1ccnc1
  -5% | -10%
- CC1CCCC(C(=O)O)N1C(=O)CCSSCCC(=O)N1C(C)CCCC1C(=O)O (centres undefined)
  -16% | i
- C/C(=N\NC(=O)CNc1cccc(C(F)(F)F)c1)c1ccc(Br)cc1
  -11% | -27%
- COc1cccc(-n2c(CCn3nc(C)c([N+](=O)[O-])c3C)n[nH]c2=S)c1
  -5% | 0%
- CCOc1ccc(NC(=O)c2cc(S(=O)(=O)N3CCC(C)CC3)cn2C)cc1
  3% | -6%
- CCn1c(=S)sc2c(=O)n(CC(=O)Nc3cccc(OC)c3)c(C)nc21
  5%[7.34 µM] | -5%[7.34 µM]
- CC(C)(C)NCC(=Cc1ccccc1)C(=O)c1ccccc1
  ? | 10µM*
- CCC(=O)NC(=S)Nc1ccc(NC(=O)c2ccc([N+](=O)[O-])cc2)cc1
  -9% | -9%
- Cc1cc(C)c2c(CN3CCN(c4ccccc4)CC3)cc(=O)oc2c1
  -9% | i

Under each structure – Vaccinia Venus | Vaccinia mCherry
- COc1ccc(CNC(=O)c2ccc(-c3ccc(F)c(F)c3)c3ccoc23)cc1OC
  -26% | -2%
- Cc1c2cnn(CC(=O)N3CCC4(CC3)OCCO4)c(=O)c2c(C)n1Cc1ccccc1Cl
  -5% | -23%
- CCCOC(=O)c1ccc(-c2c(C)noc2-c2ccc(OC)cc2O)o1
  ? | ?
- Cc1cc(C)cc(N2CCn3c2nc2c3c(=O)n(C/C=C/c3ccccc3)c(=O)n2C)c1
  -4% | -13%
- Fc1cccc(Cc2noc(CN3CCCCC3c3ccccn3)n2)c1 (centres undefined)
  0% | -12%
- Cc1sc2nc(SCc3ccccc3)n(Cc3ccco3)c(=O)c2c1C
  -12% | i
- CCOC(=O)c1ccc(-c2ccc(/C=N/NC(=O)CN(c3ccccc3Cl)S(C)(=O)=O)o2)cc1
  -17% | -8%
- O=C(NCc1ccccc1)C(c1ccc(-c2ccccc2)cc1)N1CCN(c2ccccc2F)CC1 (centres undefined)
  -10% | -15%
- O=C1c2ccccc2C(c2nnnn2Cc2ccccc2)N1Cc1cccc(F)c1 (centres undefined)
  -6%&-4% | -2%&28%
- Cc1ccc(-c2cc(C(=O)NCCCN3CCCC3)c3ccccc3n2)cc1C
  -21% | i
- CC1=C(C(=O)Nc2ccccc2)S(=O)(=O)CCO1
  0.79µM* | 0.89µM*
- COc1ccc(N(C(=O)c2cnccn2)C(C(=O)NC2CCCCC2)c2ccc(O)cc2)cc1 (centres undefined)
  -9% | i
- COc1ccc(-c2nnc(SCC(=O)NCc3cccs3)n2CC(C)C)cc1
  -26% | nt
- CC(C)(C)c1ccc(C(=O)N2CCC(C(=O)c3ccccc3)CC2)cc1
  ? | -19%
- COc1ccc(NC(=O)CSc2nccn2Cc2ccc(F)cc2)cc1
  -19% | -6%
- CCOC(=O)C1C2c3ccccc3O[C@@]1(C)N=C1SCC(=O)N12 (some centres undefined)
  -11% | -5%
- O=C(CN1CCN(Cc2ccc3c(c2)OCO3)CC1)c1c[nH]c2ccccc12
  -25% | -11%
- COc1cc(C(O)C(=O)O)ccc1O (centres undefined)
  -8%&-12% | -14%&-15%
- COc1ccc(CCNC(=O)c2ccc(-c3ccc([N+](=O)[O-])cc3)o2)cc1OC
  -21% | -1%
- COc1ccc(NC(=O)c2c(NC(=O)c3ccc(Br)cc3)sc3c2CCCC3)cc1
  -23% | -16%

Under each structure – Vaccinia Venus | Vaccinia mCherry
- COc1cccc(C(=O)N2N=C(c3ccccc3)CC2(O)C(F)(F)F)c1 (centres undefined)
  -14% | i
- COc1ccc(CN(C(=O)CNC(=O)c2ccco2)C(C(=O)NCC2CCCO2)c2ccc(OC)c(OC)c2)cc1 (centres undefined)
  -3% | -11%
- COc1ccc(-c2cc(C(=O)NCCN3CCOCC3)no2)cc1OC
  -5% | -13%
- O=C1CC(c2ccccc2)c2ccc(O)cc2O1 (centres undefined)
  -7% | -13%
- Cc1cc(C)n(/C(=C\N(C)C)C(=O)c2ccc(Cl)cc2)n1
  -8% | -12%
- O=C(NCc1ccccc1Cl)C1CCCN(c2ncnc3c2nc2n3CCCCC2)C1 (centres undefined)
  -23% | i
- O=C(Cc1c(F)cccc1Cl)Nc1cc(S(=O)(=O)N2CCOCC2)ccc1N1CCOCC1
  -13% | i
- COc1cc(-c2cc(NC=O)c3ncc(-c4ccc(F)cc4)n3c2)cc(OC)c1OC
  ? | ?
- Cc1nn(-c2cc(N(S(C)(=O)=O)S(C)(=O)=O)c(Cl)cc2Cl)c(=O)n1C
  3% | -10%
- CCc1ccccc1NC(=O)CN(C1CCCCC1)S(C)(=O)=O
  -4% | i
- CCOC(=O)c1c(CNCCN(CC)CC)n(C)c2cc(Br)c(OC)cc12
  -7% | nt
- COc1cc(N2C(=O)CSC23C(=O)N(Cc2ccc(C)cc2)c2ccccc23)cc(OC)c1OC (centres undefined)
  -2% | -7%
- CCOc1ccc(CCNC(=O)c2nnc(Cc3cc(OC)c(OC)c(OC)c3)o2)cc1OCC
  -10% | -12%
- S=C1SCN(Cc2cccnc2)CN1Cc1cccnc1
  -13% | -21%
- CC(/C=N/NC(=O)c1cc(-c2cccnc2)nc2c1c(C)nn2-c1ccccc1)=C\c1ccccc1
  -12% | 0%
- CCOc1ccc(C(=O)NCC(=O)N2CCN(Cc3ccccc3)CC2)cc1
  -3% | -30%
- O=C(c1ccc(S(=O)(=O)Cc2cc(F)ccc2F)c([N+](=O)[O-])c1)N1CCCCC1
  -22% | -26%
- Cc1ccc2[nH]c3c(c2c1)CN(C(=O)CC1(c2ccccc2)CC(=O)N(Cc2cccnc2)C1=O)CC3 (centres undefined)
  -17% | -13%
- COCCn1c(SCC(=O)Nc2cc(C)cc(C)c2)nnc1C(C)C
  -8% | -18%
- CC(C)c1ccc(NC(=O)CN2C(=O)COc3ccc(S(=O)(=O)N4CCCCCC4)cc32)cc1
  -11% | -22%

Retrieved by structure from the list above (three):
Under each structure – Vaccinia Venus | Vaccinia mCherry
- COc1ccc(NC(=O)c2c(NC(=O)c3ccc(Br)cc3)sc3c2CCCC3)cc1
  -23% | -16%
- Cc1ccccc1Cn1nnc2c(=O)[nH]c(C3CCN(C(=O)c4ccccc4Cl)CC3)nc21
  0% | 13%
- COc1ccc(NC(=O)CSc2nccn2Cc2ccc(F)cc2)cc1
  -19% | -6%

More entries.
Under each structure – Vaccinia Venus | Vaccinia mCherry
- O=C(N/C=C\c1ccccc1)NCc1ccc(Cl)cc1
  -2% | nt
- CCc1nc(SCC(=O)N2CC(=O)Nc3ccccc32)c2c(C)c(C)sc2n1
  -14% | i
- O=C(c1ccc2c(=O)n(Cc3ccc4c(c3)OCO4)c(=S)[nH]c2c1)N1CCCCC1
  -11% | i
- COc1ccc(CN2C(=O)C(CC(C)C)Nc3ncnc(N4CCCCC4)c32)cc1 (centres undefined)
  -29% | -3%
- Cc1ccc(CS(=O)(=O)c2ccc(C(=O)N3CCCCC3)cc2[N+](=O)[O-])cc1
  -13% | -25%
- Cc1noc(NS(=O)(=O)c2ccc(NC(=O)CSc3nc4c(cc3C#N)CCC4)cc2)c1C
  9% | 3%
- COc1ccc(NC(=O)CSc2nc3nc(C)cc(C)c3c(=O)[nH]2)cc1
  -1% | i
